Assay outcomes deposited in PubChem by National Center for Advancing Translational Sciences (NCATS).
VDR inhibitor: Inhibitors of the vitamin D receptor (VDR): qHTS; VDR-SRC2-3 peptide fluorescence polarization, 2 h; Potency, µM, for the others: max response, negative = inhibition, usual class: inhibitors; 400,000 tested, 0.93% active; active = well fitted inhibition curve with a large enough effect; inconclusive = small, poorly fitted or top-dose-only effect, or another doubt; inactive = no such curve, though single readings can be large or run the other way; also: series mostly up to about 120 µM
Target sequence (P11473 whole entry, looked up): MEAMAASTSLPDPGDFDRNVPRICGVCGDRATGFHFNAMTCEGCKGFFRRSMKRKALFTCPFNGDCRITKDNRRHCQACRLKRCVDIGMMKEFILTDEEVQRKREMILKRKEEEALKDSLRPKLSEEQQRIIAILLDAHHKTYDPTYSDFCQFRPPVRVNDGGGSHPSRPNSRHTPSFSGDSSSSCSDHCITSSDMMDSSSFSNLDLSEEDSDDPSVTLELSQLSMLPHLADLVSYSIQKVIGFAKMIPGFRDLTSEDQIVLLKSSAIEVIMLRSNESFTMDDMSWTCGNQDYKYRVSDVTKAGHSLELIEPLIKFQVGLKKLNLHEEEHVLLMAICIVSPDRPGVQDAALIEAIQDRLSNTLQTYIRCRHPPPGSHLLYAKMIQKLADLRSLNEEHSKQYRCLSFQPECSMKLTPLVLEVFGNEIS
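Fluorescence polarization assay of small-molecule disruption of VDR binding to coregulator peptide SRC2-3. Compounds and controls pin-transferred, then read after 2 h incubation at ambient room temperature.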
The depositor's hits bear a star; ? = inconclusive; & = joins results of further samples. % is scaled to controls: 0 for no effect and ±100 for the full control effect; potency is read from the fitted curve at half-maximal effect.

canonical_smiles	VDR inhibitor
Cc1cccc(OCCC(=O)NNC(=O)c2ccoc2C)c1	15.7%
CCN(CC(=O)NCc1cccs1)C(=O)CCC(=O)c1ccc(C)cc1	-4.4%
CCOC(=O)c1sc(NC(=O)CSc2nc(C)cc(C)n2)c(C#N)c1C	7.6%
CN(C)CCNC(=O)NC1CCCCC1	22.4%
Cc1ccc(NC(=O)COc2cccc(Oc3ccccc3)c2)cc1S(=O)(=O)N1CCOCC1	0.6%
COc1ccccc1C(=O)Oc1ccc(N2C(=O)CCC2=O)cc1	-14.4%
CCOc1ccc(NC(=O)CC2C(=O)NCCN2C(=O)c2ccc(Cl)cc2)cc1 (stereo not given)	-7.6%
COc1ccccc1Cn1c(CNS(=O)(=O)c2cccc([N+](=O)[O-])c2)nc2cccnc21	-8.3%
Cc1cc(/C=C2\SC(=S)N(C)C2=O)c(C)n1-c1ccccc1O	5.3%
CCn1c(SCC(=O)N2CCN(c3ccc(Cl)cc3)CC2)nc2ccccc2c1=O	-0.5%&1.9%
CCc1cc2cc(C)cc(C)c2nc1Cl	-10.7%
CC[C@H](C)[C@H](NC(=O)[C@H](Cc1ccc(O)cc1)NC(=O)[C@@H]1CCCN1C(=O)[C@H](CCCCN)NC(=O)[C@@H](N)CCCCN)C(=O)N[C@@H](CC(C)C)C(=O)O	-8.7%
COc1ccc(C(C[N+](=O)[O-])c2c(C)[nH]n(-c3ccccc3)c2=O)cc1 (stereo not given)	?
CC(NC(=S)Nc1cccc(F)c1)C(c1cccs1)N1CCOCC1 (stereo not given)	-4.7%
O=C(C1=C[C@@H](c2ccc(C(F)(F)F)cc2)C[C@@H](OCCCCO)O1)N1CCN(Cc2ccc3c(c2)OCO3)CC1	-11.9%
COc1ccc(/C=C/C(=O)NC(=S)NCc2ccccc2)cc1OC	10.8%
Oc1c(C(c2ccco2)N2CCN(C(c3ccccc3)c3ccccc3)CC2)sc2ncnn12 (stereo not given)	?
Cc1ccc(-c2c(C3C4C=CCC(C)C4C(=O)N3Cc3ccccc3)ccc3ccccc23)cc1 (stereo not given)	-16.3%
COc1ccc(NC(=O)Nc2ccccc2SC)cc1OC	-9.0%
CCCN(C(=O)CSCc1ccc(Cl)cc1)c1c(N)n(Cc2ccccc2)c(=O)[nH]c1=O	-13.8%

Three entries drawn at random from the list so far, as already listed:
canonical_smiles	VDR inhibitor
Oc1c(C(c2ccco2)N2CCN(C(c3ccccc3)c3ccccc3)CC2)sc2ncnn12 (stereo not given)	?
CC[C@H](C)[C@H](NC(=O)[C@H](Cc1ccc(O)cc1)NC(=O)[C@@H]1CCCN1C(=O)[C@H](CCCCN)NC(=O)[C@@H](N)CCCCN)C(=O)N[C@@H](CC(C)C)C(=O)O	-8.7%
CCn1c(SCC(=O)N2CCN(c3ccc(Cl)cc3)CC2)nc2ccccc2c1=O	-0.5%&1.9%

The results go on:
canonical_smiles	VDR inhibitor
CN=c1scc(-c2ccc(OC)cc2)n1/N=C(\C)c1cccnc1	4.0%
C#CCOc1c(Br)cc(/C=N\NC(=O)CN2CCOCC2)cc1OCC	12.5%
COc1ccc(OC)c(NC(=S)N2CCN(C/C=C/c3ccccc3)CC2)c1	15.5%
O=CN1N=C(c2ccccc2)CC1c1ccc(Cl)cc1 (stereo not given)	3.3%
C/C(=N\NC(=O)CCC(=O)N/N=C(\C)c1ccc(C)o1)c1ccc(C)o1	-0.7%
O=C(Nc1ccc2oc(-c3ccccc3F)nc2c1)c1ccc([N+](=O)[O-])o1	2.8%
O=C(CSc1ncnc2c1oc1ccccc12)N1CCCc2ccccc21	-3.6%
Cc1ccc(NC(=O)c2cccc(N3C(=O)C4C5CCC(C5)C4C3=O)c2)c(C)c1 (stereo not given)	17.9%
c1ccc(SCCN2CCc3ccccc3C2)cc1	1.9%
CC(C)C(NC(=O)CCNC(=O)c1ccc([N+](=O)[O-])cc1)c1nc2ccccc2[nH]1 (stereo not given)	-13.1%
NC(=O)c1ccc(NC(=O)COC(=O)CC2Sc3ccccc3NC2=O)cc1 (stereo not given)	2.8%
COc1ccc(-n2c(SCC(=O)NCC3CCCO3)nc3c(c2=O)SC(C)C3)cc1 (stereo not given)	6.7%
CC(=O)C[C@@H](O)CC(=O)[C@H]1OC(=O)CCCCCc2ccccc21	-16.1%
CCC(Oc1ccc(F)cc1)C(=O)Nc1nc(-c2ccc(F)cc2)ns1 (stereo not given)	18.2%
O=C(NCCOc1cccc(Cl)c1Cl)c1cc(-n2cnnc2)ccc1Cl	-8.8%
COc1ccc(C2/C=C\CN([S+](=O)([O-])c3ccc4ccccc4c3)C(C)C(=O)N2Cc2ccc(F)cc2)cc1 (stereo not given)	-7.0%
COC(=O)c1[nH]c2c(c1C)C(=O)CC(c1ccccc1)C2 (stereo not given)	-15.5%
O=C(O)c1cccc(N2C(=O)CSC2=S)c1	3.3%
COc1cc(/C=C2\SC(N)=NC2=O)ccc1OCC(=O)Nc1ccccc1C	?
Cc1ccccc1OCC(=O)Nc1ccc2c(c1)OCO2	18.2%

In a second layout: two of the compounds above.
O=C(Nc1ccc2oc(-c3ccccc3F)nc2c1)c1ccc([N+](=O)[O-])o1
- VDR inhibitor: 2.8%

Cc1ccccc1OCC(=O)Nc1ccc2c(c1)OCO2
- VDR inhibitor: 18.2%

The main list resumes with the 2 entries that preceded the break.
canonical_smiles	VDR inhibitor
COc1cc(/C=C2\SC(N)=NC2=O)ccc1OCC(=O)Nc1ccccc1C	?
Cc1ccccc1OCC(=O)Nc1ccc2c(c1)OCO2	18.2%
FC(F)(F)c1nc(NCC2CCCO2)c2nnn(Cc3ccccc3Cl)c2n1 (stereo not given)	-7.2%
COC(=O)c1cc(C#N)c(N2CC(C)OC(C)C2)nc1C (stereo not given)	9.6%
CCCCN(CCCNC(=O)c1cc(Nc2cccc(SC)c2)nc2ccccc12)Cc1ccccc1	-3.9%
CN(C)CCN(C(=O)c1ccccc1Cl)c1nc2c(Cl)cccc2s1	-1.7%
CC1CCN(CCCNC(=O)c2cc(Sc3ccc(F)cc3)nc3ccccc23)CC1	4.6%
COc1ccc(-c2nn(C)c3sc(C(=O)NCc4ccco4)cc23)cc1OC	6.3%
N#Cc1ccccc1OCC(=O)Nc1ccc2c(c1)OCCO2	-12.7%
O=C(CN1CCCCC1)Nc1ccc(Br)cc1[N+](=O)[O-]	-2.0%
O=C(c1ccc(Cl)cc1)N1CCCC(C(=O)N2CCN(c3ccccc3)CC2)C1 (stereo not given)	-2.4%
O=C(NCCN1CCOCC1)c1cc2sccc2n1Cc1ccc(F)cc1	3.9%
COc1ccc(C(c2c(O)ccc3ccccc23)N2CCOCC2)c(OC)c1 (stereo not given)	70.8µM*
CCOc1ccc(NC(=O)c2ccc(N3CC4CC(C3)c3cccc(=O)n3C4)c(NC(=O)c3cccnc3)c2)cc1 (stereo not given)	-20.7%
Fc1ccc(NCc2ccccc2-c2nnc(-c3ccccc3Cl)o2)cc1	13.0%
COc1ccc(/C=C/C(=O)Nc2ccncc2)cc1OC	-17.5%
CCOc1ccccc1N(CC)C(=O)c1ccc2c(=O)n3c(nc2c1)CCCCC3	0.0%&5.5%
O=C(NCc1ccco1)c1sc2cc(Cl)ccc2c1Cl	4.4%
O=c1cnnc(Nc2ccccc2F)[nH]1	22.6%
C#CCOCCOCCOCCNc1nc(N2CCN(C(=O)C([C@@H](C)CC)n3cc(C(N)CC(C)C)nn3)CC2)nc(N2CCN(C(=O)[C@H](CCC(=O)O)n3cc(C(N)CC(C)C)nn3)CC2)n1 (stereo not given in full)	-10.5%
COc1cc(OC)c(Nc2nc3ccc(C)cc3n3nnnc23)cc1Cl	20.0%
CC(=O)Nc1ccc(S(=O)(=O)N2c3ccc(F)cc3CCC2C)cc1 (stereo not given)	6.3%
Cc1noc(C)c1S(=O)(=O)N1CCC(C(=O)N2CCN(c3ccc(F)cc3)CC2)CC1	18.9%
Cc1ccc(NC(=O)c2cc(-c3cc(C)c(C)cc3O)n[nH]2)cc1C	2.8%
CCOc1ccc(Cl)cc1CNCCCSc1ncccn1	-7.7%
O=C(CSc1nnc(-c2cccs2)n1-c1ccccc1)NCC1CCCO1 (stereo not given)	-9.2%
O=C(NCc1cccs1)c1ccc(N2CCCC2=O)cc1	-7.1%
COCCN(C(=S)Nc1cccc(OC)c1)C(C)c1cccs1 (stereo not given)	-8.3%
O=S(=O)(NCCCc1ccccc1)c1ccc(F)c(F)c1	-1.7%
CCN(CC)c1ccc(C2C(C(=O)OC(C)C)C(=O)CC(C)(O)C2C(=O)OC(C)C)cc1 (stereo not given)	5.0%
CCOC(=O)C1(C(C)(C)CC)CC(CSc2nc3ccccc3[nH]2)OC1=O (stereo not given)	3.1%
O=S(=O)(c1ccc(Cl)cc1)c1nc(-c2ccccc2Br)oc1N1CCOCC1	-4.9%
Cc1nc(NC(=O)CSc2nnc(C3CC3)n2N)c(Cl)cc1Cl	7.8%
N#Cc1c(N)n(-c2ccc(O)cc2)c2nc3ccccc3nc12	5.9%
Cc1ccc(O)c(NC(=O)c2cc(-c3ccc(F)cc3)no2)c1	12.0%
COCCN(Cc1cc2cc(C)ccc2n2nnnc12)C(=S)Nc1ccc(C)cc1	-14.2%
Cc1cccc(-c2nc(CN3CCCC(C(=O)N4CCN(c5cc(Cl)ccc5C)CC4)C3)c(C)o2)c1 (stereo not given)	-26.4%
O=C(C1=C[C@@H](c2ccc(C(F)(F)F)cc2)C[C@@H](OCCCCO)O1)N1CCOCC1	-25.1%
CCOP(=O)(Nc1cccc2oc(=O)c3ccccc3c12)OCC	-13.8%
O=C(CCC(=O)N1CCN(c2ccccc2F)CC1)c1ccc(F)cc1	-11.1%
COc1cccc(NC(=O)CN(C)C(=O)c2cccnc2Sc2ccc(C)c(C)c2)c1	-4.3%
COc1ccccc1C(=O)Nc1c2c(nn1-c1ccc([N+](=O)[O-])cc1)CS(=O)(=O)C2	-0.3%
CCCCNC(=O)N(O)C1N(/N=C/c2cccs2)C(=S)SC1(C)C (stereo not given)	-17.1%
NS(=O)(=O)c1ccc(NC(=O)COC(=O)c2ccc3c(c2)OCCO3)cc1	21.6%
O=C(c1ccc(COc2c(F)c(F)c(F)c(F)c2F)o1)N1CCOCC1	8.0%
CCOC(=O)c1ccc(NC(=O)CN(c2ccc(C)cc2)S(=O)(=O)c2c(C)noc2C)cc1	-11.0%
O=C(Nc1ccccc1)Nc1nnc(-c2ccccc2)s1	3.4%
Cc1c(NC(=O)C(C)OC(=O)c2c3c(nc4ccccc24)CCC3)c(=O)n(-c2ccccc2)n1C (stereo not given)	-9.3%
CCOc1cc(CNn2cnnc2)cc(Br)c1OCC(=O)NC1CCCCC1	7.1%
Cc1c(CCNC(=O)c2ccc(C(F)(F)F)cc2)sc2nc(-c3ccc(F)cc3)nn12	-0.6%
CCn1c2ccccc2c2cc(N=C3SC(CC(=O)Nc4ccccc4OC)C(=O)N3C)ccc21 (stereo not given)	4.1%
N#Cc1ccc(COc2ccc(CCO)cc2-n2nc3ccccc3n2)cc1	-17.0%
CC[C@@H](NS(=O)(=O)c1ccc(C)cc1)C(=O)Oc1ccc2c3c(c(=O)oc2c1)CCC3	-18.0%
CCOC(=O)c1nc(Nc2ccc(OC)cc2)c2ccccc2n1	1.2%&8.4%
O=S(=O)(NC1CCCCC1NS(=O)(=O)c1ccc(F)cc1)c1ccc(F)cc1 (stereo not given)	-8.3%
N#Cc1cc2c(nc1SCc1ccc(Cl)nc1)CCCCC2	9.6%
O=C(O)CCCNC(=O)c1ccccn1	5.9%
Clc1ccc2oc(-c3ccccc3)nc2c1	-15.0%
C[C@H](NC(=O)[C@@H]1Cc2ccccc2CN1)C(=O)NC1CCCCC1	2.7%
CCOc1ccc(Oc2nc(NCC(C)C)nc(N(C)C)n2)nn1	0.4%
Cc1cc(C(=O)N2CCc3ccccc32)n(-c2ccccc2)n1	-13.0%
CC(=O)Nc1ccc(OCC(O)Cn2cccn2)cc1 (stereo not given)	-22.2%

Next entries follow:
canonical_smiles	VDR inhibitor
CC(=O)Nc1ccn(C2OC(C(COC(C)=O)NC(=O)C(CCCCNC(=O)OCc3ccccc3)NC(=O)OC(C)(C)C)C(OC(C)=O)C2OC(C)=O)c(=O)n1 (stereo not given)	-5.0%
CN1CCCN(C(=O)c2cccc(Cl)c2)CC1	-0.7%
CCC(=O)OCc1cc2cccc(C)c2[nH]c1=O	-11.8%
Nc1ncc(-c2nnnn2-c2ccc(Cl)cc2)c(-c2ccc(Cl)cc2)n1	-0.5%
COc1ccccc1CN1C2CCCC1CC(NC(=O)/C=C/c1ccccc1)C2 (stereo not given)	-1.8%
CCOC(=O)c1cc2cc3ccccc3cc2oc1=O	17.9%
Cc1nc2c(ccc3c([N+](=O)[O-])cccc32)c(C)c1C	-2.5%
O=C(CCC1CCCC1)N1CCc2c([nH]c3ccccc23)C1c1ccc(Cl)cc1 (stereo not given)	7.0%
O=C1c2ccccc2S(=O)(=O)N1CC(O)Cn1c2ccccc2c2ccccc21 (stereo not given)	-5.8%
C=CCNC(=O)C1=NOC(CNC(=O)c2c(-c3ccccc3Cl)noc2C)C1 (stereo not given)	-4.0%
Cc1ccc(C)c(S(=O)(=O)Nc2nc(C)c(C(=O)Nc3ccccc3)s2)c1	3.8%
O=C(Nc1cccc(O)c1)N1CCOCC1	-7.3%
CCOc1ccc(NC(=O)Cn2cnc3nc4c(cc3c2=O)CCCC4)cc1	1.2%
O=C(NCc1cccs1)C1CCCN(S(=O)(=O)c2cccs2)C1 (stereo not given)	-0.9%
Cc1ccc(OCC(=O)Nc2ccc(S(=O)(=O)N3CCCC3)cc2)cc1	-5.0%

This is a subset; count on the stated rates, not on these rows.
